StopGo FLuc: Primary qHTS Assay for Foot and Mouth Disease Virus Antivirals against NCGC Sytravon and CBC Compound Libraries: Firefly Luciferase Signal; AID 1745856, 2022; 0.23% of 120,000 active; Potency, µM (doses to about 57.5 µM), for the others: top-dose signal change, negative = less light; HEK cells with a luciferase reporter of 2A StopGo recoding; active = well fitted falling curve with a large enough effect; inconclusive = small, poorly fitted or top-dose-only effect; inactive = no such curve, though single readings can be large or run the other way; also: nearly all actives have a fitted effect of over 60% in size; overnight with compound
2A Renilla: Primary qHTS Assay for Foot and Mouth Disease Virus Antivirals against NCGC Sytravon and CBC Compound Libraries: Renilla Luciferase Signal; AID 1745857, 2022; 0.32% of 120,000 active; HEK cells with a luciferase reporter of 2A StopGo recoding; Potency, µM (doses to about 57.5 µM), for the others: top-dose signal change, negative = less light; active means well fitted falling curve with a large enough effect; inconclusive means small, poorly fitted or top-dose-only effect; inactive means no such curve, though single readings can be large or run the other way; also: nearly all actives have a fitted effect of over 55% in size; overnight with compound
Active calls of the source: *; ? = inconclusive; & = joins results of further samples; [ ] = dose if it differs, or a comment. % is scaled to controls: 0 for no effect and ±100 for the full control effect; potency is read from the fitted curve at half-maximal effect. Not all compounds are listed; count on the stated rates, not on these rows.

SMILES	StopGo FLuc	2A Renilla
N#Cc1cccc(Oc2ccc(C(=O)OCC(=O)c3ccccc3)cc2)c1C#N	8%	-3%
Cc1oc(-c2ccc(Cl)cc2)nc1CN1CCC(C(=O)NCCCN2CCN(c3cccc(Cl)c3)CC2)CC1	-17%	-10%
CC(C)n1c(NCCO)nc2c1c(=O)n(C)c(=O)n2C	?	?
Cc1c(-c2cccc(Cl)c2)nc2ccccc2c1C(=O)NC1CCCc2ccccc21 (stereo unspecified)	-8%	56%[activator]
COc1ccc(C)cc1NC(=O)Nc1ccccc1OCc1cc(=O)n2ccccc2n1	-14%	4%
Cc1oc(-c2cccs2)nc1CC(=O)Nc1ccccc1O	10%	20%
Cc1noc(C)c1S(=O)(=O)N(CC(=O)Nc1ccc(C(F)(F)F)cc1)c1ccc(C(C)C)cc1	?	-8%
COc1cc(Nc2ncc3c(n2)CCN(Cc2cccc(C)c2)C3)cc(OC)c1	3%	-16%
CCc1ccc(CNC(=O)CCCN2C(=O)c3cccnc3Oc3ccc(Cl)cc32)cc1	-22%	-11%
CCCCC(=O)N1CCN(c2nc3c(C)c(C)ccc3s2)CC1	-4%	-3%
CN1CCN(c2oc(-c3ccc([N+](=O)[O-])cc3)nc2C#N)CC1	1%	-4%
Cn1c(=O)oc2cc(S(=O)(=O)N3CCC(C(=O)N4CCN(c5cccc(Cl)c5)CC4)CC3)ccc21	2%	-6%
CCCCNC(=O)c1ccc2c(=O)n(-c3ccccc3)c(=O)[nH]c2c1	-13%	1%
Cn1c(=O)c2c(nc(SCc3ccc(F)cc3)n2C)n(C)c1=O	-3%	-11%
COc1ccc(CC(=O)Nc2nnc3n2CCS3)cc1	-13%	-9%
CNC(=O)c1ccc(NC(=O)CCc2ncc(-c3ccccc3F)o2)cc1	19%	5%
CC1=C(C)C(c2cn(C)c3ccccc23)N(Cc2ccccc2)C1=O (stereo unspecified)	-5%	63%[activator]
CC1=CC(C)(C)N(S(=O)(=O)c2ccc(C)cc2)c2ccc(Cl)cc21	-19%	-7%
COC(=O)C1=C(N)N(c2ccc(Cl)cc2)C2=C(C(=O)CCC2)C1c1ccc(OC)cc1 (stereo unspecified)	9%	-15%
Cn1ncc(C(=O)N2CCN(c3ccccc3)CC2)c1C1CCN(C(=O)OC(C)(C)C)CC1	-16%	-13%

In the list so far, 7 contain sulfur:
SMILES	StopGo FLuc	2A Renilla
Cc1oc(-c2cccs2)nc1CC(=O)Nc1ccccc1O	10%	20%
Cc1noc(C)c1S(=O)(=O)N(CC(=O)Nc1ccc(C(F)(F)F)cc1)c1ccc(C(C)C)cc1	?	-8%
CCCCC(=O)N1CCN(c2nc3c(C)c(C)ccc3s2)CC1	-4%	-3%
Cn1c(=O)oc2cc(S(=O)(=O)N3CCC(C(=O)N4CCN(c5cccc(Cl)c5)CC4)CC3)ccc21	2%	-6%
Cn1c(=O)c2c(nc(SCc3ccc(F)cc3)n2C)n(C)c1=O	-3%	-11%
COc1ccc(CC(=O)Nc2nnc3n2CCS3)cc1	-13%	-9%
CC1=CC(C)(C)N(S(=O)(=O)c2ccc(C)cc2)c2ccc(Cl)cc21	-19%	-7%

Next section:
SMILES	StopGo FLuc	2A Renilla
CC(C)Nc1cccnc1N1CCN(C(=O)c2cc3cc(NS(C)(=O)=O)ccc3[nH]2)CC1	-13%[11.5 µM]	-2%
COC(=O)[C@H](C)NC(=O)Nc1cc(-c2n[nH]c(=O)c3ccccc23)ccc1C	9%	6%
Cc1ccc2cc3cc(C(=O)Nc4ccc(F)cc4Cl)oc3nc2c1	18%	-5%
Cc1cc(C)cc(NC(=O)C2CCCN2S(=O)(=O)c2ccc3c(c2)CCCC(=O)N3)c1 (stereo unspecified)	-29%	?
CCCc1c(C(=O)NCCc2ccccc2)nnn1-c1ccc(C)cc1	28%	0%
CCCN1Cc2cccc(C(=O)Nc3cc(Cl)cc(Cl)c3)c2C1=O	8%	1%
O=C(NCCc1c[nH]c2ccccc12)c1ccccc1Oc1ccccc1	-1%	12%
CCCOc1ccccc1C1Oc2nc(SC)nnc2-c2ccccc2N1C(C)=O (stereo unspecified)	-13%	-5%
CCOc1ccc(NC(=O)CSc2cn(CCNC(=O)c3ccccc3F)c3ccccc23)cc1	2%	34%[activator]
COc1ccc(CCNC(=O)c2ccc3nc4cc(Cl)ccc4c(=O)n3c2)cc1OC	20%	6%
Cc1ccc(C(=O)N/N=C2/CC(=O)CC(C)(C)C2)cc1	21%	-6%
COc1cccc2cc(-c3cc(=O)oc4ccc(OC(C)=O)cc34)oc12	19%	16%
COc1cccc(C2C(C(=O)Nc3cccnc3)=C(C)Nc3nc(SCc4ccccc4)nn32)c1 (stereo unspecified)	-1%	4%
CCCc1nn2c(=O)cc(COC(=O)c3cccc(NC(=O)COc4ccccc4C)c3)nc2s1	21%	-7%
CCn1cc(C(=O)Nc2cccc(Cl)c2)c2cc(OC)c(OC)cc2c1=O	-4%	7%
CCc1ccc(S(=O)(=O)c2nnn3c2nc(NC(C)C)c2cc(Cl)ccc23)cc1	-3%	-2%
CCCn1nnc(NCc2c(F)cccc2Cl)n1	80%[activator]	4%
COc1ccccc1/C=C/C=C(/C#N)C(=O)NC(C)c1ccccc1 (stereo unspecified)	1%	-12%
CCc1cccc(NC(=O)CSc2n[nH]c(-c3ccccc3Cl)n2)c1	-18%	?
Cc1nn(-c2ccccc2)c2c1C(c1cnn(C)c1C)SCC(=O)N2 (stereo unspecified)	2%	-12%
Cc1ccc(CCNC(=O)c2cc3c(=O)oc4ccccc4c3s2)cc1	-6%	0%
O=C(Cn1c(=O)n(-c2ccc(F)cc2)c(=O)c2sc3ccccc3c21)N1CCCC1	-14%	-10%
CCOc1ccc(-c2cc(C(=O)N3CCN(S(=O)(=O)c4cc(Cl)ccc4OC)CC3)[nH]n2)cc1	?	-7%
Cn1c(=O)c2c(nc(SCC(=O)N3CCOCC3)n2Cc2ccc(Cl)cc2Cl)n(C)c1=O	-8%	-12%
COc1cc2oc(=O)c(CC(=O)NC3CC3)c(C)c2cc1Cl	20%	9%
COc1cccc(NC(=O)CSc2nnc(COc3ccccc3)n2Cc2ccco2)c1	9%	16%
COC(=O)c1ccc(NC(=O)NCCn2nnc3cc(S(=O)(=O)N(C)C)ccc32)cc1	-17%	-1%
CCOC(=O)C1=C(N)OC(C)=C(C(C)=O)C12C(=O)Nc1ccccc12 (stereo unspecified)	-3%	1%
CCN(CC)CCNC(=O)c1cc(-c2ccc(Br)s2)nc2ccccc12	-9%	-4%
O=C(Nc1ccc(SC2CCCC2)cc1)C1CCCC1	195%[activator]	34%[activator]
Cc1ccc2nc(-c3ccc(NC(=O)c4ccc(S(C)(=O)=O)cc4)cc3)sc2c1	19%	-10%
CCSc1ncc(Cl)c(C(=O)N2CCN(c3ccccc3OC)CC2)n1	21%	99%[activator]
O=C(CCC(=O)c1ccc(Cl)cc1)OCC(=O)c1ccc(-c2ccccc2)cc1	0%	7%
CC(C)c1ccc(C2C(C#N)=C(N)OC3=C2C(=O)CC(C)(C)C3)cc1 (stereo unspecified)	0%	23%
O=C(NCC(=O)N1CCN(S(=O)(=O)c2ccccc2)CC1)NCc1ccccc1	-17%	-18%
COc1cc(NS(=O)(=O)c2ccc(C)cc2)cc2sc(NC(=O)c3ccccc3)nc12	-10%	190%[activator]
COCCCNc1nc2c(c(=O)n(C)c(=O)n2C)n1Cc1cccc(Br)c1	-6%	-1%
CCc1ccc2occ(CC(=O)Nc3ccccc3C(F)(F)F)c2c1	-4%	-18%
CCOc1ccc(-c2nc(CSCC(=O)N3CCN(c4cccc(C(F)(F)F)c4)CC3)c(C)o2)cc1	28µM*	?
Cc1nc2nc(SCc3ccc(F)cc3Cl)nn2c(C)c1Cc1ccccc1	32%[activator]	2%
O=C(Nc1nc2cc3c(cc2s1)OCCCO3)c1cccc(Cl)c1	10%	?
O=C(O)C/C(=C/c1ccccc1OC(F)F)c1nc2ccccc2s1	4%	21%
CS(=O)(=O)N(CCCC(=O)Nc1ccc(Br)cc1F)c1ccccc1	0%	-3%
Cc1ccc(C)c(Cn2c(=O)cc(C)c3c(C)nn(C)c32)c1	-16%	-25%
Cc1cccc2sc(N(Cc3cccnc3)C(=O)c3ccco3)nc12	-1%	13%
Cc1ccc(-c2cn(-c3cccc(Cl)c3)c(S(=O)(=O)CC(=O)Nc3cccc(C)c3)n2)cc1	116%[activator]	-8%
O=C(CCc1ncc(-c2ccccc2F)o1)N1CCN(c2ccc([N+](=O)[O-])cc2)CC1	32%[activator]	15%
O=C(CSCC(O)c1ccccc1)NC(=O)NCC(F)(F)F (stereo unspecified)	-2%	9%
Cc1ccc(S(=O)(=O)N2CCN(Cc3nc4ccc(C)cc4o3)CC2)cc1	70%[activator]	0%
COc1ccccc1C(=O)Nc1ccc2nc(N3CCC(C)CC3)cc(C)c2c1	15%	2%
Cc1ccc(Cc2c(C)nc3nc(SCC(=O)NC(C)c4ccccc4)nn3c2C)cc1 (stereo unspecified)	-15%	-3%
COc1ccc(C(=O)Nc2ccccc2C(=O)Nc2ccccc2)cc1Br	131%[activator]	11%
COc1cc(Cl)c(C)cc1NC(=O)c1cnc(N2CCOCC2)c2ccccc12	75%&-28%[activator]	53%&-11%[activator]
O=C(Nc1cccc(C(F)(F)F)c1)Nc1cccs1	0%	31%[activator]
C=CCNC(=O)NC(=O)CSc1nc(C2CC2)nc2ccccc12	-20%	-27%
CC(C)(C)c1cc(C=O)cc(C(C)(C)C)c1O	-5%	-2%&-8%
Cc1ccc(OCC(=O)Nc2ccc3oc(-c4cccc5ccccc45)nc3c2)c(-n2cnnc2)c1	113%[activator]	1%
CC(=O)Nc1nonc1-c1nnc(SCC(=O)Nc2cccc(F)c2)n1-c1ccccc1	-10%	-8%
CN1CCC[C@@H]1CCO[C@](C)(c1ccccc1)c1ccc(Cl)cc1	6%[11.5 µM]	0%
O=C(Nc1ccc(F)cc1F)Nc1c(NC2CCCCC2)c2ccccc2oc1=O	4%	12%

Later entries
SMILES	StopGo FLuc	2A Renilla
Cc1cc(N2CCCCC2)nc2ccc(NC(=O)/C=C/c3ccc(OC(C)C)cc3)cc12	6%	-5%
CCN1C(=O)c2ccccc2Sc2ccc(NC(=O)Nc3ccc(Br)c(C)c3)cc21	-17%	-6%
COc1ccc(-c2c(C)c3ccc(OC(=O)C(C)C)cc3oc2=O)cc1OC	14%	48%[activator]
COc1ccc(-c2nc(C#N)c(NCc3ccccc3)o2)cc1	232%[activator]	168%[activator]
COc1ccc(C)cc1NC(=O)Cn1c(=O)c(C(F)(F)F)nc2ccccc21	-17%	-9%
CCN1CCC(NC(=O)C23CC4CC(CC(C4)C2)C3)CC1	8%	-5%
Cc1ccc(Cn2cc(CN3[C@@H](C)COc4cc(Br)ccc4S3(=O)=O)nn2)cc1	-10%	6%
Cc1c(-c2ccccc2)nc2ccccc2c1-c1ccccc1	-13%	8%
COc1ccccc1CNC(=O)c1ncoc1-c1cccs1	106%[activator]	18%
Cc1cc(OC(C)C(=O)Nc2c(C(=O)c3ccc(F)cc3)oc3ccccc23)ccc1Cl (stereo unspecified)	-7%	-4%
CCOc1ccc(-c2nc(S(=O)(=O)c3ccc(F)cc3)c(NC)o2)cc1	0%	54%[activator]
Cc1ncc(-c2ccc(S(=O)(=O)Nc3ccc(C)c(Cl)c3)cc2)o1	-29%	164%[activator]
O=C(CCN(Cc1cccs1)CC1CCCO1)Nc1cccc2ccccc12 (stereo unspecified)	-9%	26%
Cc1ccc2c(COC(=O)CNS(=O)(=O)c3ccc(C)c(C)c3)cc(=O)oc2c1	3%	-13%
CC(=O)N1CCc2cc(S(=O)(=O)NC(CC(C)C)C(=O)NCCc3ccc(C)cc3)ccc21 (stereo unspecified)	-6%	129%[activator]
Cc1ccccc1NC(=O)CSc1nc(C)c(C)o1	13%	3%
Cc1ccc2[nH]c(CSc3nnc(NC(=O)COc4ccccc4)s3)cc(=O)c2c1	-4%	-6%
Cc1ccc(CN(C)C(=O)Cn2c(=O)c3c(ncn3C3CCCC3)n(Cc3ccccc3)c2=O)o1	0%	1%
CCc1cccc2c(-c3ccccc3)nc(SCC(=O)Nc3ccccc3OC)nc12	-10%	-4%
O=C(NCCc1ccc2c(c1)OCCO2)c1ccc(NS(=O)(=O)c2ccc(Cl)s2)cc1	-13%	-1%
COc1cccc(C(=O)NCCC(C)C)c1	116%[activator]	101%[activator]
O=C(Nc1oc2ccccc2c(=O)c1-c1ccccc1)c1ccccc1	2%	11%
Cc1ccc(C(C)NC(=O)CC2(C(=O)O)CCCCC2)o1 (stereo unspecified)	-11%	-8%

Screening results (PubChem BioAssay)
